SARS PLP yeast: inhibitors of SARS-CoV papain-like protease in yeast; Potency, µM (highest dose often 32.9 µM), without a hit: top-dose activity, positive = growth rescue; S. cerevisiae expressing SARS-CoV PLpro, growth rescue; control for the full effect not named in the record; 330,000 compounds, 0.19% hits; also: 0% is about no effect; nearly all actives have a fitted effect of over 55% in size; growth read by luminescence after 48 h
Cruzain noTriton: inhibitors of Trypanosoma cruzi cruzain without detergent; purified cruzain, Z-FR-AMC fluorescence, no detergent; Potency, µM, inactives show max response, negative = inhibition, hits mostly inhibitors; 200,000 compounds, 2.3% hits; active = well fitted curve in the direction sought with a large enough effect; inconclusive = small, poorly fitted or top-dose-only effect, or another doubt; inactive = no such curve, though single readings can be large; an effect the other way counts as inactive or inconclusive;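 also: plate controls were enzyme without inhibitor for no effect and buffer without enzyme for full effect; nearly all actives have a fitted effect of over 40% in size; top concentration of the series not given in the record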
Target sequence (P25779 123-467 limits assumed): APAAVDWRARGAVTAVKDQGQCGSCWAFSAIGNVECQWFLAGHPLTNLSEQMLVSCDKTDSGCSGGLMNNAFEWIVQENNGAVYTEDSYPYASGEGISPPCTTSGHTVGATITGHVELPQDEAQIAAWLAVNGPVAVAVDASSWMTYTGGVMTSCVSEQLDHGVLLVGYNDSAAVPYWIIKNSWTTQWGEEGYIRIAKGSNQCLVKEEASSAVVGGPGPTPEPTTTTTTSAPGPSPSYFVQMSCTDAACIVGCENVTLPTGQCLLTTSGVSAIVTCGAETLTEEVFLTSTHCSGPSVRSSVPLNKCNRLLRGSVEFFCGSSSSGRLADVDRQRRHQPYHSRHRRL
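Purified cruzain at 1.5 nM, pre-incubated 15 min with compound at room temperature in 100 mM sodium acetate pH 5.5, 5 mM DTT, 0.00005% Triton X-100. Reaction started with 2 uM Z-FR-AMC; AMC fluorescence increase over 60 s gives rate.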
LASV entry inh: inhibitors of Lassa virus binding or cell entry | Lassa virus pseudotype entry inhibition, cell reporter; control for the full effect not named in the record | 300,000 compounds, 1.2% hits | AID 540256 | Potency, µM (top dose mostly 37.9 µM), inactives show top-dose activity change, negative = inhibition, actives largely listed as inhibitors; active means well fitted inhibition curve with a large enough effect; inconclusive means small, poorly fitted or top-dose-only effect, or effect the other way; inactive means flat fitted curve, though single readings scatter; tested in HEK293 cells; also: % is scaled to controls: 0 for no effect and ±100 for the full control effect; nearly all actives have a fitted effect of over 50% in size; luciferase read-out
Cruzain Triton: cruzain (T. cruzi) inhibition with detergent; P25779; Potency, µM, for the others: max response, negative = inhibition, usual class: inhibitors; 200,000 compounds, 0.43% hits; AID 1478; purified cruzain, Z-FR-AMC fluorescence, 0.01% Triton; active = well fitted curve in the direction sought with a large enough effect; inconclusive = small, poorly fitted or top-dose-only effect, or another doubt; inactive = no such curve, though single readings can be large; an effect the other way counts as inactive or inconclusive;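 also: plate controls were neutral wells for no effect and buffer without enzyme for full effect; nearly all actives have a fitted effect of over 40% in size; top concentration of the series not given in the record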
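Z-FR-AMC hydrolysis (2 uM substrate) by cruzain (1.5 nM) monitored kinetically at ex 360/em 450 nm after 15 min room-temperature compound exposure; 0.01% Triton X-100, pH 5.5, 5 mM DTT.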
NS1 function inh: inhibitors of influenza NS1 protein function | S. cerevisiae slowed by influenza A NS1, growth recovery by OD600 | Potency, µM (highest dose often 46.1 µM), for inactives: top-dose activity, positive = more growth | 270,000 compounds, 0.4% hits; also: actives are rising curves; nearly all actives have a fitted effect of over 50% in size
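Growth recovery, yeast-based: influenza A NS1 expressed in S. cerevisiae causes slow growth, and suppressors are detected by OD600. The parent strain without NS1 is used as positive control.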
MARV entry inh: blocks Marburg virus binding to or entry into cells; AID 540276; Marburg virus pseudotyped entry inhibition, cell reporter; control for the full effect not named in the record; about a third of the inactives were read at about 46 µM; Potency, µM (series often up to 37.8 µM), for inactives: at the top dose activity change, negative = inhibition, hits mostly inhibitors; 300,000 compounds, 1.8% hits; active = well fitted inhibition curve with a large enough effect; inconclusive = small, poorly fitted or top-dose-only effect, or effect the other way; inactive = flat fitted curve, though single readings scatter; tested in HEK293 cells; about a fifth of its hits are not listed in these tables; also: % is scaled to controls: 0 for no effect and ±100 for the full control effect; luciferase read-out
StopGo reporter: FMDV 2A StopGo reporter, luciferase signal; human cells with a luciferase reporter of 2A StopGo recoding; control for the full effect not named in the record; Potency, µM (top dose mostly 57.9 µM), without a hit: at the top dose signal change, negative = less light; 410,000 compounds, 1.2% hits; AID 1159524; active = well fitted falling curve with a large enough effect; inconclusive = small, poorly fitted or top-dose-only effect; inactive = no such curve, though single readings can be large or run the other way; tested in HEK293T cells; also: % is scaled to controls: 0 for no effect and ±100 for the full control effect; nearly all actives have a fitted effect of over 45% in size; luciferase light after 4 h
RE007 growth inh: less growth of the S. pombe RE007 Vpr strain; S. pombe RE007 Vpr strain, BacTiter-Glo ATP luminescence, 24 h; control for the full effect not named in the record; Potency, µM (top dose mostly 92.2 µM), for inactives: at the highest dose activity change, negative = less growth; 360,000 compounds, 0.21% hits; AID 651644; active = well fitted falling curve with a large enough effect; inconclusive = small, poorly fitted or top-dose-only effect; inactive = no such curve, though single readings can be large or run the other way;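 also: % is scaled to controls: 0 for no effect and ±100 for the full control effect; nearly all actives have a fitted effect of over 50% in size; the assay follows cell death caused by Vpr and the record does not say whether a fall means rescue or toxicity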
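Fission yeast strain RE007, carrying one chromosomally integrated HIV-1 vpr copy, was seeded at OD 0.01 in PMG+AL medium with 23 nL pinned compound. After 24 h at 30 °C and 99% humidity, viability was read by BacTiter-Glo luminescence.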
The depositor's hits bear a star; ? = inconclusive; / = not tested or not shown; & = joins results of further samples; [ ] = another dose, or the depositor's remark. Unless noted, calls follow the shape of the dose curve; as a rule, active means well fitted rising curve with a large enough effect; inconclusive means small, poorly fitted or top-dose-only effect; inactive means no such curve, though single readings can be large or run the other way. Potency is read from the fitted curve at half-maximal effect. Not a hit list, and some 4.8% of all compounds hit somewhere here.

SMILES	SARS PLP yeast	Cruzain noTriton	LASV entry inh	Cruzain Triton	NS1 function inh	MARV entry inh	StopGo reporter	RE007 growth inh
Cc1ccc(C(=O)NCCCN2CCOCC2)c(Cl)c1	-2%	/	?	/	6%	?	29%	10%
COc1cc2c(cc1OC)C(CC(=O)O)N(C(=O)Nc1cc(OC)c(OC)c(OC)c1)CC2 (stereo not drawn)	/	11%	5%[46.1 µM]	1.6%	/	/	-13%	/
FC(F)(F)c1cccc(-c2nn[nH]n2)c1	-5%	/	12%	/	/	17%[46.1 µM]	-6%	11%
COc1ccc(N(CC(=O)N2CCCCCC2)S(=O)(=O)c2ccccc2[N+](=O)[O-])c(OC)c1	0%	/	-19%	/	5%	-4%[46.1 µM]	3%	-1%
CCCC12CN3CC(CCC)(CN(C1)C3c1ccccn1)C2=O (stereo not drawn)	1%	9%&-2%	4%	1.5%&0.8%	1%	4%	-6%&0%	-4%
CC(NC(=O)Nc1ccc(Cl)cc1)C1CCCO1 (stereo not drawn)	1%	/	3%	/	4%	17%[46.1 µM]	17%	-6%
O=C(Nc1ccccc1)Nc1c(F)cccc1F	0%	/	-22%	/	/	9%[46.1 µM]	59%[activator]	1%
Cn1c(SCC(=O)N2CCN(c3ccccc3)CC2)nnc1-c1ccccc1	0%	-1%	-1%	4.0%	0%	-28%	?	5%
CS(=O)(=O)N(CC(=O)N1CCN(c2ccc(F)cc2)CC1)c1ccc(F)c(Cl)c1	-2%	10%	-8%	-0.8%	-5%	-1%	?	7%
C[n+]1ccc(C(=O)Nc2ccccc2Cl)cc1	?	/	/	/	-2%	/	-2%	1%
CCCS(=O)(=O)NCCc1cc2ccc(OC)cc2[nH]c1=O	0%	-9%	/	-1.4%	?	/	6%	-7%
CC(=O)c1sc(NC(=O)CN2C(=O)CCC2=O)nc1C	/	/	-17%	/	2%	-2%&-2%	-2%	-24%
COc1ccc(/C=N/NC(=O)c2ccn[nH]2)cc1Cn1cc([N+](=O)[O-])cn1	1%	/	6%	/	-1%	7%[46.1 µM]	23%	2%
Nc1nnc(SCC(=O)NN2C(=O)NC3(CCCCC3)C2=O)s1	19%	-5%	8%	-5.1%	4%	1%	-11%	-4%
CC1=C(C(=O)Nc2ccc(C(=O)N3CCN(c4cccc(Cl)c4)CC3)cc2)SCCO1	0%	/	/	/	15%	/	-2%	-1%
Cc1oc2cc3oc(=O)c(CCC(=O)NCCC(=O)O)c(C)c3cc2c1C	0%	/	/	/	-1%	2%	3%	-2%
O=C(Nc1ccnn1C1CCN(CC(O)CO)CC1)C1CCCC1 (stereo not drawn)	-3%	/	18%	/	17%	5%	-16%	-3%
COc1cccc(/C=N/NC(=O)c2ccc(CN3c4cccc5cccc(c45)S3(=O)=O)cc2)c1	-5%	20µM*	9%	-5.9%	24%	-27%	-8%	9%
CCOC(=O)N1CCN(C(=O)c2ccc3c(c2)N(Cc2cccc(Cl)c2)C(=O)c2ccccc2S3=O)CC1 (stereo not drawn)	-4%	?	?	-1.6%	20%	/	?	3%
Cc1cccc(Nc2nc3ccccc3n3c(N)nnc23)c1	/	2%	-20%[46.1 µM]	-4.4%	/	-24%[46.1 µM]	2%	/
Cc1oc2cc(OCC(=O)O)ccc2c(=O)c1Oc1ccccc1	1%	5%	-2%	-1.9%	0%	24%	/	4%
Cc1occc1C(=O)N1CCN(S(=O)(=O)c2ccccc2)CC1	-1%	/	2%	/	8%	28%	-11%	-4%
CCOc1ccccc1CN1CCN(CC2CC2)CC1CCO (stereo not drawn)	1%	/	14%[46.1 µM]	/	14%	-13%[46.1 µM]	-7%	-9%
O=C(Cn1cc2c(n1)CCCCC2)NCCCN1CCOCC1	?	2%	/	8.3%	-2%	/	0%	-2%
Cc1ccc(NC(=O)C2CCN(S(=O)(=O)c3c(C)nn(C)c3C)CC2)c(Cl)c1	6%	/	/	/	?	/	-17%	22%
COC(=O)c1ccc(COC(=O)c2nn(C)c(=O)c3ccccc23)cc1	0%	/	-4%	/	-5%	-15%	?	3%
CCN(CC)CCSc1nc(O)c(C(C)C)c(=O)[nH]1	-6%	2%	-3%	3.0%	2%	?	7%	-14%
COC(=O)c1cccc(N(CC(=O)NC2CCCC2)C(=O)CCC(=O)Nc2cc(C)on2)c1	-2%	/	-21%[46.1 µM]	/	-13%	-1%[46.1 µM]	6%	8%
O=C(CNC(=O)c1ccc(=O)[nH]c1)Nc1ccc(F)c(F)c1	0%	/	14%	/	-6%	-15%[46.1 µM]	9%	-2%
COc1cc2c3c(c1OC)-c1cc(O)ccc1CC3NCC2 (stereo not drawn)	11%	-1%	0%	0.2%	6%	-19%[46.1 µM]	0%	-12%
O=C(Nc1cc(C(F)(F)F)ccc1Cl)c1ccncc1	-6%	/	9%	/	-3%	-37%	-20%	11%
COc1ccc(N(CC(=O)Nc2cc(C)ccc2C)S(=O)(=O)c2ccc(OC)c(OC)c2)cc1	/	5%	-15%[46.1 µM]	-0.8%	/	/	?	/
CC(C)n1c(C(F)(F)F)nc2cc(C(=O)N3CCOCC3)ccc21	-2%	/	-7%	/	0%	5%	-13%	-6%
Cc1cc2c(=O)n(NC(N)=O)c(C)nc2s1	-1%	3%	-13%	-0.9%	2%	?	-11%	-3%
O=C(Cc1ccccc1)Nc1cccc(-c2cn3cccnc3n2)c1	/	22%	?	-15%	/	/	50%[activator]	/
Cc1[nH][nH]c(=O)c1C(c1cc(Br)ccc1O)c1c(C)[nH][nH]c1=O	0%	/	/	/	3%	/	-14%	12%
O=C(C(c1ccccc1)c1ccccc1)N1CCN(Cc2ccncc2)CC1	-2%	0%	10%	1.9%	-15%	21%	-20%	2%
CN(C)c1ccc(/C=C(/C#N)C(=O)Nc2nc3c(s2)CCN(Cc2ccccc2)C3)cc1	/	/	13%	/	/	7%	?	-18%
CC(C)(C)OC(=O)N1CCN(c2ccc(NC(=O)c3ccco3)cc2)CC1	-31%	/	/	/	-32%	-17%[46.1 µM]	?	-28%
CCn1cc(Cl)c(C(=O)Nc2nccs2)n1	3%	/	-14%[46.1 µM]	/	-4%	?	32%[activator]	-1%
Cc1nnc(SCC(=O)N2CCN(S(=O)(=O)c3ccccc3)CC2)n1Cc1ccccc1	-10%	29%	2%	0.8%	-9%	-1%&-1%	0%	-14%
COc1ccc(NC(=O)C23CCC(C)(C(=O)O2)C3(C)C)cc1 (stereo not drawn)	2%	5%	13%	-1.6%	2%	10%	7%	-6%
CCN(CC)S(=O)(=O)c1ccc(C(=O)OCCN2C(=O)c3cccc4c(N5CCOCC5)ccc(c34)C2=O)cc1	-6%	-2%	27%	-2.3%	7%	-7%	?	13%
O=C(Nc1cnn(C23CC4CC(CC(C4)C2)C3)c1)c1cnn2c(C(F)(F)F)cc(-c3ccco3)nc12	5%	?	?	1.1%	/	?	/	1%
CCCCOC(=O)CSC1=C(C#N)C(c2ccccc2OC)C(C#N)C(=O)N1 (stereo not drawn)	2%	-9%	-5%	-3.3%	?	?	-28%	2%
Nc1nc(N)nc(C2C=CCCC2)n1 (stereo not drawn)	/	/	13%[46.1 µM]	/	/	27%[46.1 µM]	-15%	76%
Cc1ccccc1C(=O)Nc1ccc2c(C#N)c3nc4ccccc4nc3n2c1	14%	-16%	0%	-15%	21%	-17%	?	-2%
CNc1ccc(C(=O)c2ccccc2C(=O)O)cc1[N+](=O)[O-]	1%	/	/	/	-3%	/	1%	1%
COc1ccc(Cn2nnc3c(=O)[nH]c(C4CCN(C(=O)c5ccccc5Cl)CC4)nc32)cc1	0%	?	?	-0.8%	8%	-19%&-19%	?	41%
CCOC(=O)c1ccc(N2C(=O)CC(N3CCCC(C)C3)C2=O)cc1 (stereo not drawn)	-36%	-5%	8%	3.0%	-35%	13%	-17%	3.2µM*
Going on with the list.
SMILES	SARS PLP yeast	Cruzain noTriton	LASV entry inh	Cruzain Triton	NS1 function inh	MARV entry inh	StopGo reporter	RE007 growth inh
COc1ccc(CCNC(=O)c2ccc(=O)[nH]c2)cc1	2%	/	35%[46.1 µM]	/	/	9%[46.1 µM]	3%	4%
CC(=O)N1CCN(Cc2cc(=O)n3cc(Cl)c(C)c(Cl)c3n2)CC1	1%	-14%	17%	-1.8%	2%	8%	-18%	-11%
O=C(N/N=C/c1ccc(N2CCCCC2)o1)c1ccccc1	-9%	-15%	12%	-7.3%	15%	?	-13%	-9%
CCCCCn1c(CN2CCN(C(=O)OCC)CC2)nc2c1c(=O)[nH]c(=O)n2C	-2%	?	?	1.1%	-4%	11%	9%	9%
CC(=O)Nc1ccc(NC(=O)CSc2nc3c(=O)n(C)c(=O)n(C)c3n2C)cc1	13%	/	2%	/	/	7%	-22%	-4%
CC(=O)Nc1cccc(NC(=O)Nc2cccc3ccccc23)c1	-5%	/	/	/	-8%	/	-29%	13%
Cc1ccn2c(=O)nc(SCC(=O)NC3CCCC3)nc2c1	-7%	/	?	/	/	-14%	-23%	-13%
NC(=O)C1CCCN(C(=O)c2ccc(Cl)c(S(=O)(=O)N3CCc4ccccc43)c2)C1 (stereo not drawn)	5%	/	-18%	/	/	-23%	-11%	-14%
COc1cccc(S(=O)(=O)Nc2cccc(C(=O)N3CCOCC3)c2)c1	3%	9%	-3%	1.1%	-1%	-1%[46.1 µM]	20%	-15%
CCOc1ccccc1N1C(=O)c2ccc(C(=O)O)cc2C1=O	-1%	-5%	17%	5.2%	6%	25%	-7%	-6%
COc1ccc(C(=O)Nc2ccc(C(=O)NCCc3ccc(OC)c(OC)c3)cc2)cc1	0%	/	/	/	3%	/	11%	-5%
Cc1c(Cl)cccc1NC(=O)CN(CCc1ccccc1)S(=O)(=O)c1ccccc1	/	-6%	-2%[46.1 µM]	-5.4%	/	/	3%	/
O=C(CNC(=S)NC(=O)c1ccccc1)c1ccccc1	11%	2%	10%	-4.8%	15%	?	-11%	-9%

Source: PubChem BioAssay (National Center for Advancing Translational Sciences (NCATS))
